# Screens from PubChem.
# CSC inhib: cancer stem cell inhibition | cancer stem cell-like cells viability, luminescence | inhibition, % at 7.5 µM | 1.1% of 300,000 active | AID 2717;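 active = mean at 75% or more and at least half the replicates too; inconclusive = mean and replicates disagree; tested in HMLE shEcad cells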;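 also: 0% = median of negative and 100% = median of positive control wells; the first replicate is given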
# Rce1 inhib: yeast Ras-converting enzyme inhibition | Q03530 | yeast membranes, quenched prenylated peptide cleavage fluorescence | calls only | 0.27% of 290,000 active | AID 2563;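 active = fall in fluorescence gain of 50% or more versus controls, with final raw signal at or below 3038400; inconclusive = same 50% fall but final raw signal above 3038400; inactive = fall in fluorescence gain under 50%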;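 also: plate controls were neutral control wells for no effect and wells lacking membranes for full effect; tested at 10 µM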
# Target sequence (Q03530 whole entry, looked up): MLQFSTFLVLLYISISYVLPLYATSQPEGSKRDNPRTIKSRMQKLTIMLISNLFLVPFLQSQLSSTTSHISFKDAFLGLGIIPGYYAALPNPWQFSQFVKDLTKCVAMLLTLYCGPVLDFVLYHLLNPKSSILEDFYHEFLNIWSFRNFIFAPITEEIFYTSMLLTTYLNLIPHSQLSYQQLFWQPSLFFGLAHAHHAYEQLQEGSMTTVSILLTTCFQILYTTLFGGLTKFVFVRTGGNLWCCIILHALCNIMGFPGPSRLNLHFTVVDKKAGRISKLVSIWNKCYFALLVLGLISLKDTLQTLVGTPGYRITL
# PABP FP inh: blocks human PABP binding to poly(A) RNA; fluorescence polarization; inhibition, % at 35 µM; 1% of 290,000 active; AID 2014; P11940;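 active = 50% or more with normal probe brightness, or confirmed in later tests; inconclusive = above 50% with abnormal brightness, or retests that disagree; inactive = below 50% or failed in later tests; about a fifth of its hits are not listed in these tables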;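 also: calls also rest on retests at 20 µM and on dose response follow-up; controls were probe without protein and protein plus probe with vehicle; some compounds called inactive have numbers as strong as hits; many hits fall short of the cut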
# Target sequence (P11940 whole entry, looked up): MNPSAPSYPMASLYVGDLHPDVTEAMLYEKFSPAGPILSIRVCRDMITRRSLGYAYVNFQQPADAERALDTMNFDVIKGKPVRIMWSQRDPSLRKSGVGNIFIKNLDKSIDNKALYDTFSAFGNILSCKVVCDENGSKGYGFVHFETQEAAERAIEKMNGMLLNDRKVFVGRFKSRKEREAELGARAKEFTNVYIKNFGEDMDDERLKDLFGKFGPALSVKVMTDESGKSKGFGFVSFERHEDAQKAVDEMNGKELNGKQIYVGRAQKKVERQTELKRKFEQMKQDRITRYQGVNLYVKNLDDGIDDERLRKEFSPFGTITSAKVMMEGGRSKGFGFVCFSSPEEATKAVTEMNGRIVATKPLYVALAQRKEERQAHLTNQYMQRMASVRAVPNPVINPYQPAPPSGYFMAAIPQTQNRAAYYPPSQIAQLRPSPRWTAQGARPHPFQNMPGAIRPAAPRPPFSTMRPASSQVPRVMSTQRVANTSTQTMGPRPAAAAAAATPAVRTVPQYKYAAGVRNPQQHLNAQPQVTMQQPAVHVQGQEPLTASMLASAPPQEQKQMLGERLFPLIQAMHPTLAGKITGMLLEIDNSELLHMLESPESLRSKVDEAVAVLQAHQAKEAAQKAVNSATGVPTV
# Env fusion inh: blocks HIV Env-driven cell-cell fusion; HeLa-JRFL Env/CEM21 cell fusion, luciferase; inhibition, % at 12.3 µM; 1.1% of 360,000 active; AID 651610;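 active = mean replicate inhibition score of at least 50 and every replicate individually at or above 50; inconclusive = only one of the two criteria met; inactive = mean below 50 and not all replicates reaching 50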;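 also: 0% = plate neutral controls and 100% = maraviroc near 300 nM; one replicate is shown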
# UUG fidelity: yeast start codon fidelity modulation | 0.13% of 350,000 active | activity score, % at 18.7 µM | S. cerevisiae UUG-firefly luciferase reporter, luminescence/redox ratio;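 active = replicate mean at a twofold rise or more, about +100% in these data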;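 also: firefly luciferase made from a UUG start codon reports start codon fidelity; reporter light over untreated wells divided by growth signal over untreated wells; some hits fall short of that in this replicate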
# eIF4H FP inh: inhibitors of RNA binding by human eIF4H; Q15056; eIF4H fluorescence polarization binding assay; inhibition, % at 35 µM; 0.94% of 290,000 active; AID 2012;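 active = 50% or more with normal probe brightness, or confirmed in later tests; inconclusive = above 50% with abnormal brightness, or retests that disagree; inactive = below 50% or failed in later tests; about a fifth of its hits are not listed in these tables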;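 also: calls also rest on retests at 20 µM and on dose response follow-up; 0% = protein and probe with vehicle and 100% = probe without protein; strong numbers were not always called active; many hits fall short of the cut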
# MT1-MMP act inh: inhibitors of human MT1-MMP activation; GFP/RFP ratio change, % at 20 µM; HT1080 RFP-PRO-GFP cells, GFP/RFP ratio fluorescence, overnight; percent of plate control window, DMSO zero; 0.061% of 360,000 active; P50281;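 active = GFP/RFP ratio change of at least 30% with cell ATP level not reduced by more than half and red fluorescence within 50% of control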; also: strong numbers were not always called active
#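 Read-out: GFP/RFP fluorescence ratio; Test system: RFP-PRO-GFP reporter HT1080 cells; Compound dosing: single-point 20 µM compound, 1% DMSO; Times: overnight compound exposure at 37 °C.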
# eIF4H FP inh retest: recorded beside eIF4H FP inh, whose call it bears; inhibition, %; compound at 20 µM; confirmation average;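 mean of two retest wells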
# PABP FP inh retest: second read-out of PABP FP inh, no call of its own (marks repeat the call); inhibition, %; compound at 20 µM; confirmation repeats;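 mean of two retest wells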
# MT1-MMP act inh RFP: further read-out of MT1-MMP act inh, marked with its call; RFP signal change, %; measured here: RFP expression control read;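 0 = vehicle wells; hits needed this value within 50% of zero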
# * marks the source's active call; other numbers are inactive results; i = inactive; ? = inconclusive; / = not tested or not shown; + = active, no number. Some of the compounds tested; rates above refer to the full screens.
SMILES,CSC inhib,Rce1 inhib,PABP FP inh,Env fusion inh,UUG fidelity,eIF4H FP inh,MT1-MMP act inh,MT1-MMP act inh RFP,others
Cc1cc(NC(=O)/C=C/c2ccc(F)cc2)n(-c2nc3ccccc3[nH]2)n1,2,i,14,-12,-12,8,-2,-1,
O=C(NNC(=S)NCc1ccc(Cl)cc1)c1ccc(Br)o1,-2,i,9,10,/,12,0,3,
CCOC(=O)C1=C(CCc2ccccc2)NC(=O)NC1c1ccc(C#N)cc1 (stereo not given),-3,i,/,11,5,/,0,-2,
O=C1CSc2ccc(C(=O)O)cc2N1,4,i,-13,16,-3,-2,0,3,
Cc1cc(Br)cc2cn[nH]c12,2,i,7,-6,-13,-12,-7,-6,
N#CC1=C(N)Oc2n[nH]c(-c3cccs3)c2C1c1cccnc1 (stereo not given),/,i,3,1,-23,-1,1,-10,
COc1cccc(NC(=O)N2C3CCCC2CC(NC(C)=O)C3)c1 (stereo not given),-12,i,2,1,-30,3,3,9,
CC1(C)CC(NC(=O)COc2cc3oc(=O)c4c(c3cc2Cl)CCC4)CC(C)(C)N1,-1,i,7,-17,/,12,3,4,
Cc1ccc(N2CC(C)Cn3c2nc2c3c(=O)[nH]c(=O)n2C)cc1 (stereo not given),/,i,-3,4,-16,-7,4,0,
Cc1cc(Cl)c(S(=O)(=O)NC2CCCCC2)cc1OCC(=O)Nc1nncs1,-5,i,-5,/,8,4,3,-22,
CC(C)COc1ccc(-c2nn(-c3ccccc3)cc2CO)cc1,64,i,-6,-39,-1,-4,4,2,
CC1C(=O)N2CCCc3cc(NS(C)(=O)=O)cc1c32 (stereo not given),-10,i,10,2,0,10,-2,3,
Cc1ccc2nc3c(cc(C#N)c(=O)n3-c3nccs3)c(=O)n2c1,-15,i,104*,16,-5,98*,-1,3,
CSCCC(NS(=O)(=O)c1ccc(Cl)cc1)C(=O)OCC(=O)N1CCCc2ccccc21 (stereo not given),-5,i,-10,9,/,-6,-4,-4,
CCOc1ccc(C(F)(F)F)cc1NC(=O)COc1ccc(C(F)(F)F)cc1[N+](=O)[O-],-2,i,12,-430,-10,4,5,9,
CCCCNC(=S)Nc1ccc2nc(N3CCN(CC)CC3)cc(C)c2c1,71,i,27,-6,-18,-2,0,1,
CCCn1c(NC(=O)c2cccc(C)c2C)nc2ccccc21,47,i,3,/,-21,0,-4,-16,
COc1ccc(C(=O)Cn2nc(CNc3ccc(Br)cc3)[n+]3c2CCCCC3)cc1,13,i,-4,4,/,-17,-18,-14,
Cc1cc(C(=O)COC(=O)c2ccc(N)c([N+](=O)[O-])c2)c(C)n1Cc1ccc2c(c1)OCO2,-1,i,-4,-34,-9,-10,-7,-12,
Cc1ccc(CNC(=O)c2ccc(S(=O)(=O)N(C)C)cc2)n1C,-11,i,2,-7,-5,3,-2,3,

# An excerpt taken from the entries so far, for reference:
SMILES,CSC inhib,Rce1 inhib,PABP FP inh,Env fusion inh,UUG fidelity,eIF4H FP inh,MT1-MMP act inh,MT1-MMP act inh RFP,others
CCCn1c(NC(=O)c2cccc(C)c2C)nc2ccccc21,47,i,3,/,-21,0,-4,-16,
COc1ccc(C(=O)Cn2nc(CNc3ccc(Br)cc3)[n+]3c2CCCCC3)cc1,13,i,-4,4,/,-17,-18,-14,

# Remaining list, next part:
SMILES,CSC inhib,Rce1 inhib,PABP FP inh,Env fusion inh,UUG fidelity,eIF4H FP inh,MT1-MMP act inh,MT1-MMP act inh RFP,others
CCOC(=O)CC/C(=N\NC(N)=O)c1ccc(OC)c(Cl)c1,-11,i,/,25,-16,/,1,1,
COC(=O)C1=C(C)N(Cc2ccc(OC)cc2)C(=O)/C1=C\c1ccco1,7,i,16,-6,/,5,0,-4,
COc1cc(O)oc1C=Nc1ccccc1,-5,/,16,-18,3,-2,0,5,
CN(C)c1ccc(/C=N/N2CCN(c3ccccn3)CC2)cc1,-3,i,18,-5,1,-9,1,1,
CCNS(=O)(=O)c1ccc(CCC(=O)NCc2ccccc2)cc1,-10,/,-4,24,/,-2,2,1,
COc1cc(CN2C(=O)C(NC(=O)c3ccco3)(C(F)(F)F)C3=C2CC(C)(C)CC3=O)cc(OC)c1 (stereo not given),-11,i,-4,-30,9,1,5,-2,
Cc1ccc(C[n+]2cccc(-c3ccccc3)c2)c(C)c1,22,i,99,29,/,7,-16,-24,eIF4H FP inh retest=0;PABP FP inh retest=5
COc1cc(-c2nnc3n2N=C(c2ccccc2)CS3)cc(OC)c1OC,48,i,-4,-23,-15,-3,12,-7,
CC(=O)NC(Cc1ccccc1)Cc1ccccc1,-5,i,12,-10,-7,6,2,0,
O=C(NCc1cccnc1)c1ccc(Cl)c(S(=O)(=O)N2CCOCC2)c1,-9,i,-5,/,-13,-12,-2,-2,
Cc1cc(=O)oc2cc(OCC(=O)Nc3ccccc3C(=O)O)ccc12,-11,i,16,12,1,-6,-2,3,
COc1ccc(NS(=O)(=O)c2cccs2)cc1S(=O)(=O)N1CCCCC1,12,i,/,15,29,/,6,1,
CC(C)[C@H]1C(=O)Nc2ccccc2N1C(=O)N[C@@H](Cc1ccccc1)C(=O)N[C@H](C(=O)O)c1ccccc1,-1,i,6,/,-7,-4,0,4,
S=C(NCCc1ccc(Cl)cc1)NC1CCCCC1,6,i,8,-19,-20,-5,-1,-5,
O=C(COC(=O)c1cccnc1Nc1cccc(C(F)(F)F)c1)NCCN1C(=O)CSC1=O,7,i,-3,-67,/,-1,-2,-3,
CC(C)C(=O)N[C@@H]1c2ccccc2CC[C@@H]1OCc1ccccc1,/,/,/,-17,1,/,-1,1,
CCc1ccc(OCC(=O)OCC(=O)NCCNC(=O)COC(=O)COc2ccc(CC)cc2)cc1,0,i,4,20,-16,-3,2,4,
COc1cccc(N2C(=O)CN(Cc3cc(OC)c(OC)c(OC)c3)C2=S)c1,5,i,2,-10,2,-5,7,-8,
CCN(CC)CCNC(=O)c1ccccc1N,-2,i,2,/,-11,5,5,5,
CC(C)CN(C(=O)COC(=O)c1ccc2ccccc2c1)c1c(N)n(Cc2ccccc2)c(=O)[nH]c1=O,-16,i,/,/,/,/,-1,-8,
Clc1ccc2nc(-c3ccncc3)cc(-c3ccccc3)c2c1,0,i,-3,8,/,-3,-51,-37,
CN(C)CCCn1c(=O)n(Cc2ccco2)c(=O)c2c3c(sc21)CCCCC3,-16,i,-4,52,/,-2,-13,-7,
Cc1ccc(N(CCO)C(=S)Nc2ccccc2)cc1,4,i,0,4,-12,-10,-2,4,
Cc1nc(N2CCN(Cc3ccccc3)CC2)nc2c1C(=O)CC(C)C2 (stereo not given),5,i,24,?,-7,1,5,-4,
O=C(CC(c1ccccc1)c1ccccc1)Nc1nn[nH]n1,-11,i,4,15,/,2,7,7,
Cc1ccc(S(=O)(=O)N2C[C@@H]3[C@H]4CC[C@H](C4)[C@@H]3[C@@H](C)[C@@H]2c2ccn(Cc3ccccc3)c2)cc1,/,/,/,63*,-10,/,-9,-16,
Cc1cccc(Sc2c([N+](=O)[O-])ncn2C)c1,8,i,31,6,-17,-2,3,-5,
Cc1cc(C)cc(N(C(C)C(=O)N2CCCCC2)S(C)(=O)=O)c1 (stereo not given),/,i,6,/,4,4,6,3,
C=CCOc1ccc(/C=C/C(=O)OCC(=O)NC(C)c2ccc(F)cc2)cc1 (stereo not given),-5,i,/,-8,/,/,-3,3,
O=C(Nc1ccc2c(c1)OCO2)C1CC(c2c(F)cccc2Cl)=NO1 (stereo not given),2,i,-10,/,13,4,3,0,
CC(C)(C)NC(=O)CN(C(=O)c1ccc(Cl)nc1)c1cccc2ccccc12,-8,i,10,-7,3,3,-10,-6,
CC(C)(C)NC(=S)NC1CC1,4,i,11,-4,/,10,4,5,
CCCCN(C=O)c1c(CC)nc2c(OCC(=O)c3ccc(F)cc3)cccn12,/,/,/,-10,-12,/,-1,0,
CC1CCCCN1C(=S)Nc1ccc(OC(F)F)cc1 (stereo not given),5,i,-3,10,/,7,2,-1,
CCOC(=O)c1cnc(-n2nc(C)cc2C)nc1Nc1ccc(C)cc1,/,i,-7,-89,-29,-9,-1,-5,
Cc1cc(C)nc(NS(=O)(=O)c2ccc(NC(=O)CCCN3C(=O)c4ccccc4C3=O)cc2)n1,-12,i,13,/,4,0,3,1,
Nn1c(SCc2nc3ccccc3[nH]2)nnc1C1CCCCC1,-10,/,0,-18,-7,4,-3,1,
Nc1cccc2cc(S(=O)(=O)O)ccc12,/,/,/,6,-4,/,4,12,
CN1CCN(NC(=S)Nc2ccc(OC(F)F)cc2)CC1,6,i,15,7,/,-2,-1,1,
N#Cc1ccc(CN2CCN(C(=O)C3CC(=O)N(c4ccc5c(c4)OCCO5)C3)CC2)cc1 (stereo not given),/,/,/,17,-2,/,-1,-4,
COc1ccc(CCN2CC(C(=O)Nc3ccc(S(C)(=O)=O)cc3)CC2=O)cc1OC (stereo not given),/,i,/,-42,-11,/,0,-1,
CCCCOC(=O)Cn1c(=N)n(CCN2CCOCC2)c2ccccc21,-20,/,/,-77,-17,/,0,-1,
O=[N+]([O-])c1cc(-c2nc(-c3ccncc3)no2)ccc1Cl,36,i,7,-13,-3,2,-9,-14,
CCCSc1nc2c(cnn2-c2ccccc2)c(=O)[nH]1,0,i,54,-1,-11,-2,0,1,eIF4H FP inh retest=1;PABP FP inh retest=-2
COc1cc(/C=N/Nc2cccc(C)c2)ccc1OC(=O)c1ccco1,/,i,-3,-10,/,-3,2,5,
OC(CN1CCC(Cc2ccccc2)CC1)c1ccccc1 (stereo not given),16,i,3,-3,-4,-4,-1,2,
CC(=O)NC(CC(=O)OCC(=O)Nc1cc(S(=O)(=O)N2CCCCC2)ccc1C)c1ccccc1 (stereo not given),-29,/,/,/,-17,/,6,2,
Cc1cccc(OC(=O)c2cccnc2)c1C,-12,i,-2,-43,-14,-6,1,0,
Cc1ccnc(NS(=O)(=O)c2ccc(N3C(=O)c4ccccc4C3=O)cc2)n1,0,i,5,-3,-13,-9,-8,0,
CCCCNC(=O)CC1N=C2c3ccccc3N=C(SCC(=O)Nc3ccccc3C)N2C1=O (stereo not given),/,/,0,-73,-1,-1,-2,2,
CN(Cc1nc2ccccc2n1C)S(=O)(=O)c1ccc(Cl)cc1,-21,i,2,/,-40,9,-2,-4,
COc1ccc(OC)c(-c2csc(NC(=O)C3COc4ccccc4O3)n2)c1 (stereo not given),-12,i,6,0,/,2,-4,-3,
COc1ccc2[nH]c(C(=O)NCCCn3ccnc3)cc2c1,-9,+,8,/,-20,-3,1,4,
COc1ccc(CN(C)C(=O)CNC(=O)c2ccc3ccccc3c2)c(OC)c1,-11,i,-15,34,-5,-6,2,0,
CCOC(=O)CN(C(=O)COC(=O)C1(c2ccccc2)CC1)c1ccc(F)cc1,-2,i,/,0,/,/,0,-3,
CC(=O)c1sc(Nc2nc3cc4c(cc3s2)OCO4)nc1C,/,i,-10,-82,/,9,-1,-11,
CCN1CCN(CCNC(=O)CCCn2nc(C)c3c(C)n(-c4ccc(C)cc4)nc3c2=O)CC1,-3,i,-6,0,-15,-14,3,4,
CCCCN(CC)C(=O)CN1C(=O)c2ccccc2C1=O,-14,i,3,/,3,3,3,5,
O=C(Nc1cc2c3c(c1)CC(=O)N3CCC2)c1ccc(Br)cc1,-2,i,/,-40,-14,/,0,-3,
CS(=O)(=O)N1CCc2cc(C(=O)Nc3ccc(Cl)cc3)ccc21,1,/,-3,-23,-7,6,3,-9,
c1csc(-c2nc(NCC3CCCO3)c3ccccc3n2)c1 (stereo not given),/,i,15,-4,-11,5,0,-4,
